HCMV NEC inh: inhibitors of HCMV UL50-UL53 nuclear egress complex interaction; HTRF UL50-UL53 interaction, normalized percent inhibition; inhibition, % (no concentration beside the values); 0.15% of 190,000 active; AID 1918969;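 active means both replicates at 50% or more, plus weaker picks with an unusually low signal ratio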;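 further: stock transfer was 100 nL into about 20 µL; 0% = negative control wells and 100% = wells with untagged competitor protein; inactives centre near -12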
GIV Gai3 FP: blocks GIV peptide binding to rat Galpha-i3. P08753. AID 1224905. percent of control (FP), % (test concentration not listed). 0.42% of 210,000 active. Galpha-i3/FITC-GIV peptide fluorescence polarization, 90 min; hits give low values; scaled: aluminum fluoride 0%, vehicle 100%;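 active means replicate mean at 85% of control or lower, very high polarization wells dropped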;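 further: wells of about 15 µL received 100 nL stock; the first replicate is given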
Target sequence (P08753 whole entry, looked up): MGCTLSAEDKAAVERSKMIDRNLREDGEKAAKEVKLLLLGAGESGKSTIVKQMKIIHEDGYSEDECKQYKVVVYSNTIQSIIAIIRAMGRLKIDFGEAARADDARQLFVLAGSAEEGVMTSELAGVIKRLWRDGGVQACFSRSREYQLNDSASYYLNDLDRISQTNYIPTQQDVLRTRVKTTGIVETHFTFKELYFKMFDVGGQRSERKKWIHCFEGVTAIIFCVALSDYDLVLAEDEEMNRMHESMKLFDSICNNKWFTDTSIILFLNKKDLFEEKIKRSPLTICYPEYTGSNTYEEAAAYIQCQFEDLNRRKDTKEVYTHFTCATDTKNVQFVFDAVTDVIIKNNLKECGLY
Sa growth inh: inhibitors of Staphylococcus aureus growth at 42 °C; 0.53% of 170,000 active; S. aureus RN4220 growth, OD600, 20 h; hits give low values; AID 720641; relative growth, % (concentration not given with the values);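 active means growth at 42 °C up to 50% and 20 or more points under that at 30 °C, or under 10% at both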;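 further: 300 nL library stock went into each well; scaled to the means of positive and negative controls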
Sa growth inh second temp: further read-out of Sa growth inh, marked with its call; relative growth, %; measured here: growth at 30 °C;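 optical density after 20 h as mean of two plates; 100% = untreated growth and lower means inhibition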
* hit, by the source's call; · = not tested or not shown; & = joins results of further samples.

SMILES	HCMV NEC inh	GIV Gai3 FP	Sa growth inh	Sa growth inh second temp
CC1(C)CC(NC(=O)Cn2nc(-c3ccccc3)c3ccccc3c2=O)CC(C)(C)N1	-11	104	96	85
CCOC(=O)CN(c1ccccc1)C1SC(=O)N(Cc2cccc(C(=O)O)c2)C1=O (stereo unspecified)	·	96	88	86
C=CCN(C(=O)c1c2c(nc3ccccc13)C(=O)N(C1CCCCC1)C2)c1ccccc1	-50	102	·	·
COc1cc(CCNC(=O)c2ccc3c(c2)c(C)c(C)n3Cc2cccc(C)c2)cc(OC)c1OC	·	100	106	98
Oc1cccc(Nc2nc(-c3ccc(F)cc3F)cs2)c1	14	·	81	42
CCOC(=O)c1c(NC(=O)N2CC(CC)Oc3ccc(Cl)cc32)sc2c1CCCC2 (stereo unspecified)	3	102	·	·
N#C/C(=C\c1ccc[nH]1)C(=O)NCCc1ccccn1	-106	104	99	90
Cc1ccc(S(=O)(=O)NC(=O)C(C)O)c(C)c1 (stereo unspecified)	-17	·	109	86
COc1ccc(NC(=O)C(C)Sc2nc(C)cc(=O)[nH]2)cc1 (stereo unspecified)	9	107	79	95
CN(C)C(=S)Nc1nc2ccccc2s1	12	109	115	79
Cc1cc(C)n(-c2nnc(C)n2/N=C/c2cc(Br)ccc2OCc2ccccc2)n1	-37	107	57	30
CCN(c1ccccc1)S(=O)(=O)c1csc(C(N)=O)c1	-16	99	·	·
O=C(Nc1ccc2[nH]c(=O)c(=O)[nH]c2c1)c1cccc(F)c1	2	101	·	·
CC(NS(=O)(=O)/C=C/c1ccccc1)C(=O)N1CCN(c2ccccc2Cl)CC1 (stereo unspecified)	0	·	116	89
CN1CCC2(CC1)C(C#N)=C(N)Oc1n[nH]c(C(=O)OC(C)(C)C)c12	-10	·	83	93
Cc1sc(-c2noc(C3CCC3)n2)cc1S(=O)(=O)N1CCCC(C(=O)Nc2cccnc2)C1 (stereo unspecified)	2	107	·	·
Cc1ccc(Cl)cc1NC(=O)c1cc(S(=O)(=O)N2CCOCC2)cn1C	-18	98	118	84
CCOC(=O)c1[nH]c(C)c(C(=O)N(CC)C2CCCCC2)c1C	-33	102	97	83
COC(=O)CC1=CC(=S)Nc2ccccc2N1	8	110	·	·
O=c1[nH]c2ccc(Cl)cc2c(-c2ccccc2)c1-[n+]1ccccc1	·	105	119	82
O=C(CCCc1ccccc1)Nc1cccc(-c2nn[nH]n2)c1	-26	103	109	93
COCCOC(=O)c1c(C)oc2ccc(OC(=O)c3sc4ccccc4c3Cl)cc12	-3	98	·	·
COc1ccc(/C=N/n2ncc3ccccc32)cc1	-18	·	27*	65*
Brc1ccc(CN2CCN(Cc3c[nH]c4ccccc34)CC2)cc1	-28	107	·	·
CCOc1ccc(NC(=O)CSc2nnc(-c3ccc(C)cc3)c(-c3ccc(C)cc3)n2)cc1	·	109	112	97

Among those listed so far, four contain a thiophene ring, fused or not.
SMILES	HCMV NEC inh	GIV Gai3 FP	Sa growth inh	Sa growth inh second temp
CCOC(=O)c1c(NC(=O)N2CC(CC)Oc3ccc(Cl)cc32)sc2c1CCCC2 (stereo unspecified)	3	102	·	·
CCN(c1ccccc1)S(=O)(=O)c1csc(C(N)=O)c1	-16	99	·	·
Cc1sc(-c2noc(C3CCC3)n2)cc1S(=O)(=O)N1CCCC(C(=O)Nc2cccnc2)C1 (stereo unspecified)	2	107	·	·
COCCOC(=O)c1c(C)oc2ccc(OC(=O)c3sc4ccccc4c3Cl)cc12	-3	98	·	·

More entries:
SMILES	HCMV NEC inh	GIV Gai3 FP	Sa growth inh	Sa growth inh second temp
COc1ccc(OC)c(/C=C/C(=O)N(Cc2cccs2)Cc2cccs2)c1	-22	·	114	98
CCCC1=C(C(=O)OCC)C(c2ccccc2OC)NC(=O)N1 (stereo unspecified)	26	114	106	99
Nc1cc(-c2ccc(Br)cc2)no1	-13	108	75	71
Cc1nc2cccnc2n1-c1cc(C(=O)NCc2ccc(N(C)C)cc2)ccc1Cl	4	106	·	·
O=C(CN1CCC(n2nnc3ccccc32)CC1)N(C1CCCCC1)C1CCCCC1	7	107	98	104
CN(N=O)C(=O)N[C@@H]1[C@@H](O)[C@H](O)[C@@H](CO)O[C@@H]1O	-44&-19	·	27	18
Cc1ccc(OCC(=O)N(Cc2nc(-c3ccccc3)no2)C(C)C)cc1C	·	102	105	95
O=C(Cn1c(=O)oc2cc(S(=O)(=O)NCc3ccccc3)ccc21)N1CCOCC1	·	99	98	92
O=C(Cn1ccc(=O)[nH]c1=O)OCc1ccccc1C(F)(F)F	15	·	106	95
O=C1CCSc2c1cccc2C(=O)NC1CCCCC1	-4	109	103	97
O=C1CCCN1c1ccc(S(=O)(=O)N2CCc3ccccc3C2)cc1	-2	108	·	·
Cc1cc(=O)oc2ccccc12	-5	99	109	75
Cc1c(-c2ccnc(=S)[nH]2)sc2nc(C(F)(F)F)nn12	-91	102	87	77
CCN1C(=O)S/C(=C\c2cn(-c3ccccc3)nc2C)C1=S	0	·	97	85
O=C(CCC1=NS(=O)(=O)c2ccccc2N1)NCc1cccs1	-21	97	105	91
CN(C(=O)Cn1c(=O)oc2cc(S(=O)(=O)N3CCCC3)ccc21)c1ccc(Br)cc1	-5	98	103	92
Cc1ccc(N(Cc2cccs2)C(=O)c2ccccc2[N+](=O)[O-])cc1	-40	102	101	81
CC(C)c1ccc(NC(=O)CNC(=O)Cn2ccc3ccccc3c2=O)cc1	-17	100	93	95
O=C(Cc1cccs1)Nc1c(C(=O)Nc2ccc(F)cc2)oc2ccccc12	8	109	96	90
OC1N(CN2CCN(c3ccccc3F)CC2)c2ccccc2C12OCCCO2 (stereo unspecified)	-10	101	108	84
Cc1nc(Cc2nnc(SCC(=O)c3ccc4[nH]c(=O)[nH]c4c3)o2)cs1	-12	·	126	69
CCOC(=O)C1=C(C)N=c2s/c(=C\c3ccccc3OC)c(=O)n2C1c1ccc(OC)c(OC)c1 (stereo unspecified)	-18	99	·	·
Cc1noc(C)c1CC(=O)N(CC1CCCO1)c1nc(-c2ccc(Br)cc2)cs1 (stereo unspecified)	11	·	90	96
CCc1noc(-c2ccc(NC(=O)C3CC(=O)N(c4ccccc4)C3)cc2)n1 (stereo unspecified)	7	112	·	·
CCC(C)CCCNc1n[nH]c(=S)s1 (stereo unspecified)	-2	·	41	48

Next part.
SMILES	HCMV NEC inh	GIV Gai3 FP	Sa growth inh	Sa growth inh second temp
COc1ccc2c(COC(=O)CC3Oc4ccccc4NC3=O)cc(=O)oc2c1 (stereo unspecified)	-29	·	120	80
Cn1c(=O)c2c(C3C(=O)Nc4ccccc43)c(-c3ccc4ccccc4c3)[nH]c2n(C)c1=O (stereo unspecified)	2	109	·	·
Cc1ccc2c(c1)OCC(CC(=O)NCCCc1ccccc1)N2C (stereo unspecified)	-17	112	·	·
O=C(O)CCN1C(=O)CCC1=O	-19	102	97	72
Cc1ccc(OC(=O)CSc2nnc(-c3ccc4c(c3)OCO4)o2)cc1	-14	102	115	88
CC(C)c1ccc(NC(=O)c2cccnc2Cl)cc1	·	101	104	81
O=C(O)c1ccc(N=Cc2c(-c3ccccc3)[nH]oc2=O)cc1	-16	·	86	80
CC1CCCCN1c1ccc(N)cc1C(N)=O (stereo unspecified)	-2	·	113	86
CN(C(=O)CN1C(=O)C2CC=CCC2C1=O)C(c1ccccc1)c1ccccc1 (stereo unspecified)	-4	·	97	97
N#Cc1c2c(c(=O)n3c1[nH]c1ccccc13)CCCC2	-9	104	92	86
O=C(NC(Cc1c[nH]c2ccccc12)C(=O)O)c1ccccc1Cl (stereo unspecified)	-11	·	110	88
Cc1cc(C)c2c(=O)c(C(=O)O)coc2c1	4	108	96	93
CN1CCN(C(=O)Cn2ncc3ccccc32)CC1	-2	105	85	88
Cc1ccc(CSc2cn(CC(=O)N3CCCCC3)c3ccccc23)cc1	·	105	117	109
COc1cccc(NC(=O)NC2CCCC2)c1	8	107	101	100
CCN(CCN(C)C)c1ccc(C(=O)O)cc1NS(=O)(=O)CC	-28	99	·	·
O=c1c2ccccc2n2c(=O)n(Cc3ccccc3F)nc2n1Cc1ccc(F)cc1	-12	105	·	·
O=S(=O)(Nc1nc2ccc(S(=O)(=O)N3CCCCC3)cc2s1)c1ccccc1	-8	104	102	97
CC1CCN(C(=S)c2ccc(O)cc2)CC1	-20	104	92	92
O=C(CN1C(=O)COc2ccc(S(=O)(=O)Nc3ccccc3)cc21)NCc1ccccc1Cl	·	109	113	96
Cc1ccc(-c2cc3ncc(C(=O)c4cc(Cl)ccc4O)cn3n2)cc1	-2	98	·	·
Cc1[nH]c(C)c(S(=O)(=O)N2CCC(C(=O)Nc3ccc(F)cc3F)CC2)c1C(=O)N1CCCCC1	-29	105	·	·
C=CCn1c(SCc2cc(=O)[nH]c(C34CC5CC(CC(C5)C3)C4)n2)n[nH]c1=O	-22	104	99	93
CC(C)CN(C(=O)Nc1ccccc1)C1=NCC(C)S1 (stereo unspecified)	-10	·	106	89
CCCCn1c(=O)c2oc3ccccc3c2n(Cc2ccc(C)cc2)c1=O	·	98	104	97

Going on with the list:
SMILES	HCMV NEC inh	GIV Gai3 FP	Sa growth inh	Sa growth inh second temp
COc1ccccc1Nc1cc(C(=O)N2CCN(Cc3ccccc3)CC2)c2ccccc2n1	·	105	115	88
COc1ccc(C2=N/C(=C\c3ccc(-c4ccc(S(=O)(=O)Nc5ncccn5)cc4)o3)C(=O)O2)cc1	-25	·	98	95
C=CCn1c(CC(C)C)nnc1SCC(=O)c1ccc(Cl)cc1	-28	100	99	83
CCN(Cc1nnc(-c2ccccc2C)o1)c1ccccc1	·	104	102	66
CN=Cc1cc(-c2ccccc2)sc1S	·	105	104	73
O=C(NC1CCCC1)c1cnn(-c2ccc(F)cc2)c1	0	101	·	·
CCOC(=O)c1ccc(NC(=O)CC2C(=O)N(c3cccc(OC)c3)C(=O)N2C2CCCCC2)cc1 (stereo unspecified)	-16	99	102	89
CCOC(=O)C(CC)Sc1c(CC)cnc2c1c(=O)n(C)c(=O)n2C (stereo unspecified)	·	102	145	83
N#CCCn1nc(-c2ccccc2)cc1Nc1ccccc1NC(=O)c1ccccc1	-29	·	102	91
COc1cc(NC(=O)Nc2nnc(N3CCCCC3)s2)cc(OC)c1	-26	102	121	92
O=C(Nc1ccc(OC(F)(F)F)cc1)c1cc2c(=O)n3ccccc3nc2s1	-21	100	104	89

An excerpt of these results, with bars between the fields.
canonical_smiles | HCMV NEC inh | GIV Gai3 FP | Sa growth inh | Sa growth inh second temp
C=CCn1c(CC(C)C)nnc1SCC(=O)c1ccc(Cl)cc1 | -28 | 100 | 99 | 83
CCN(Cc1nnc(-c2ccccc2C)o1)c1ccccc1 | · | 104 | 102 | 66
CN=Cc1cc(-c2ccccc2)sc1S | · | 105 | 104 | 73

Three of the entries above in order of the Sa growth inh value, low to high:
compound,Sa growth inh
COc1ccc(C2=N/C(=C\c3ccc(-c4ccc(S(=O)(=O)Nc5ncccn5)cc4)o3)C(=O)O2)cc1,98
C=CCn1c(CC(C)C)nnc1SCC(=O)c1ccc(Cl)cc1,99
CCOC(=O)C(CC)Sc1c(CC)cnc2c1c(=O)n(C)c(=O)n2C (stereo unspecified),145

Assay outcomes as filed in PubChem BioAssay.

Random draw from the library. Share with any hit: about 0.8%.
